# From PubChem BioAssay
# Beta cell apopt = beta cell apoptosis inhibition | 300,000 tested, 0.8% active | INS-1E cytokine-induced death, ATP luminescence, 48 h; percent of positive-control rescue, neutral wells zero | protection from apoptosis, % (no concentration beside the values);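 active = all replicates at 75% or more, or half of them and the mean; inconclusive = half reach 75% but not the mean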;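 note: 0% = cytokine-treated negative control wells and 100% = positive control rescue; higher means more ATP so stronger rescue from cytokine killing; wells of about 40 µL received 100 nL stock; the first replicate is given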
# Vif TR-FRET = inhibitors of Vif binding to APOBEC3G peptide, primary screen, biochemical, TR-FRET, GST-Vif 1-94, biotin-A3G peptide, dose response retest (AID 1117319). 260,000 tested, 0.57% active. TR-FRET GST-Vif / biotin-A3G peptide binding; higher % means a stronger effect; test concentration not given here; strong numbers were not always called active. inhibition, %, or IC50 in µM where a hit was titrated;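 active = above the screen mean plus three standard deviations and confirmed in dose response; inconclusive = results disagree or hit not tested in dose response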;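 note: Vif residues 1-94 fused to GST binding biotinylated APOBEC3G peptide 110-148; 0% = full assay without inhibitor and 100% = GST in place of GST-Vif; retest series ran down from 100 µM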
# Calb FLC = C. albicans growth modulation with fluconazole; C. albicans CaCi-2 (fluconazole-resistant clinical isolate) + fluconazole, Alamar Blue growth, 48 h; growth inhibition, % (no concentration beside the values); 300,000 tested, 0.57% active; AID 1979;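 active = most replicates above 75%; inconclusive = exactly half above 75%; inactive = most below 75%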;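 note: all wells also contain fluconazole at 8 µg/ml as a sub-toxic cotreatment; 0% = median of DMSO wells and 100% = median of geldanamycin control wells; wells of about 8 µL received 7.5 nL stock; the first replicate is given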
# Bfl-1 A1 inh = inhibitors of the anti-apoptotic protein A1, read as caspase activation; 330,000 tested, 0.066% active; MEF A1-2A-BIM cells, Caspase-Glo 3/7 luminescence, 3 h; percent of clofoctol response, vehicle zero; caspase activation, % (test concentration not listed);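 active = over half of replicate activation scores above 10%, or exactly half above 10 with the replicate mean above 10; inconclusive = replicate mean below 10 yet half the replicates above 10; inactive = over half of replicates below 10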;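 note: wells of about 30 µL received 50 nL stock; many hits fall short of the cut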
# AF4-AF9 inh = blocks AF4 peptide binding to human AF9. AlphaScreen, biotin-AF4 peptide binding to FLAG-AF9. inhibition, % at 10 µM. P42568. 350,000 tested, 0.47% active;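 active = every replicate reaching a set inhibition limit, whatever the replicate mean, cut at about 25% in these data; inconclusive = mean inhibition reaches that limit but some replicates miss it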;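 note: 0% = plate neutral control median and 100% = total signal loss; the record names both 10 and 1 µM as test concentration; the first replicate is given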
# Target sequence (P42568 whole entry, looked up): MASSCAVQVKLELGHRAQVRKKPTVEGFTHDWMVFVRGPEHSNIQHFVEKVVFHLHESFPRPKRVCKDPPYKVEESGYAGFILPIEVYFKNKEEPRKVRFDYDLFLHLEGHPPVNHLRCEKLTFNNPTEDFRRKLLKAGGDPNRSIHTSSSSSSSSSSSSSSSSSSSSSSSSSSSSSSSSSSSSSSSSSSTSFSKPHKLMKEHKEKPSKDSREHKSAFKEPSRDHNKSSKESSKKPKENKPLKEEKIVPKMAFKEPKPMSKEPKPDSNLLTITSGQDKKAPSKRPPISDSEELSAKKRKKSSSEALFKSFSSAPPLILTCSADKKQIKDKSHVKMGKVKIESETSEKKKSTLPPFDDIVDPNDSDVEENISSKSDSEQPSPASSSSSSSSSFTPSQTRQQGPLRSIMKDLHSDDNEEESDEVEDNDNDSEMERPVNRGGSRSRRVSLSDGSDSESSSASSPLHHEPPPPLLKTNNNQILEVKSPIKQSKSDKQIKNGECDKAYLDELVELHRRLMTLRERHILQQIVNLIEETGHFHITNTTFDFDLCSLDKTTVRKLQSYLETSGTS
# T cruzi repl = T. cruzi replication inhibition; T. cruzi beta-gal in NIH3T3, luminescence, 90 h; inhibition, % (concentration not given with the values); 300,000 tested, 1.4% active; AID 1885;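 active = mean inhibition across valid replicates above about 55%, limit read from the data; inconclusive = mean below that limit but half or more replicates reach it; inactive = mean below it, under half of replicates reach it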;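 note: signal also drops with host cell toxicity which is not excluded here; 0% = plate median of DMSO wells and 100% = zero luminescence signal; higher percent means less beta-gal luminescence so fewer parasites; stock transfer was 50 nL into about 50 µL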
# LANA-H2A inh = blocks KSHV LANA binding to histone H2A/H2B; Q9QR71; cell-free LANA-H2A/H2B peptide, fluorescence polarization; inhibition, % (concentration not given with the values); 320,000 tested, 0.6% active; AID 2629; in the data active = inhibition mostly above about 10%, no sharp cut-off; inactive = mostly below about 6.7%;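 note: stock transfer was 7.5 nL into about 10 µL; 0% = median of vehicle wells and 100% = median of positive control wells; one replicate is shown; the record names a cut of 25% in any replicate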
# RanGTP-Impb inh = inhibitors of RanGTP-importin-beta interaction, primary screen, biochemical, FRET, CFP-Ran, YFP-importin-beta, homogeneous. cell-free CFP-Ran/YFP-importin-beta FRET ratio. inhibition, % (no concentration beside the values). 300,000 tested, 1.1% active. AID 2216;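 active = most replicates above 15%; inconclusive = exactly half above 15%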;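 note: 0% = DMSO wells and 100% = Ran loaded with GDP instead of GTP; wells of about 40 µL received 100 nL stock; the first replicate is given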
# * hit, by the source's call; ? = inconclusive; nt = no result given.
SMILES,Beta cell apopt,Vif TR-FRET,Calb FLC,Bfl-1 A1 inh,AF4-AF9 inh,T cruzi repl,LANA-H2A inh,RanGTP-Impb inh
Cc1ccc(S(=O)(=O)Nc2ccc3nc(C)sc3c2)c(C)c1,8,-7%,nt,-1.5,0.6,nt,-0.2,nt
CCOc1ccc(N2C(=O)C3C(c4ccc(OC)cc4OC)NC(CCSC)(C(=O)OC)C3C2=O)cc1 (stereo not given),1,6%,-10,0.3,8.5,7,2.0,4.1
O=C1C/C(=C/NCc2ccccc2)C(=O)N1,-1,4%,nt,-0.2,nt,nt,-1.7,nt
NCCNc1ccc2nnnn2n1,0,-5%,-7,0.5,-1.2,1,2.0,-4.2
CC(=O)c1c(C)[nH]c(C(=O)Nc2cc(F)ccc2C)c1C,-2,nt,0,-1.1,-0.5,-3,0.2,6.0
CCOc1ccc(S(=O)(=O)N2CC(=O)Nc3ccccc32)cc1,-3,0%,5,-0.2,-0.4,-13,-11,-1.4
Cc1noc(NS(=O)(=O)c2ccc(NC(=O)c3cc(-c4ccccc4Cl)nc4ccccc34)cc2)c1C,2,-7%,42,3.0,4.1,-13,2.7,3.4
Cc1cc(NC(=O)CSc2nnc(CNC(=O)c3ccc(C(C)(C)C)cc3)o2)no1,1,2%,-5,0.0,-2.9,-4,-8.5,0.7
Cc1ccc(OCC(=O)NNC(=O)Nc2ccc(Cl)cc2)c(Br)c1,-6,nt,-2,-0.4,0.3,-4,2.3,-1.9
COc1ccccc1C(=O)NC(=O)COC(=O)c1ccc(Cl)cc1[N+](=O)[O-],-1,7%,-6,0.3,-2.3,-24,0.2,nt
O=C(Nc1ccccc1)c1cccnc1Nc1ccccc1,-9,-4%,8,-0.2,nt,14,1.8,1.5
Cc1ccc(NC(=O)c2cncc(Br)c2)nc1,nt,nt,-6,-3.7,-3.9,-1,-0.5,2.9
COc1ccc(C(=O)NCCSCc2ccc(Cl)cc2)cc1OC,1,6%,18,0.6,-8.6,-17,1.2,0.5
CCN1CCN(c2ccc(S(=O)(=O)N3CCOCC3)cc2NC(=O)COc2ccc(F)cc2Cl)CC1,nt,nt,3,-0.6,3.8,57*,2.9,2.7
O=C(CN1CCC(NC(=O)Nc2ccccc2)CC1)Nc1ccc([N+](=O)[O-])cc1,5,-3%,-6,-1.0,1.7,1,-2.5,-9.8
O=C(OC(C(=O)NCc1ccc2c(c1)OCO2)c1ccccc1F)c1ccco1 (stereo not given),-6,-5%,-3,0.1,nt,-16,-1.7,0.8
CCOC(=O)c1c(C)nn(-c2ccc(NC(=O)CSCC(=O)O)cc2)c1C,-5,1%,-3,0.5,0.8,-3,-1.5,-2.0
Cc1cccc(C)c1NC(=O)CN1CCNCC1,-1,8%,-2,-0.1,nt,7,-5.9,-1.5
CCOc1ccc(C(=O)NCC2CCN(CC3CCCCC3)CC2)cc1,nt,nt,-23,nt,2.4,17,nt,-1.9
CCOc1ccc(/C=C(\C#N)C(=O)NCC2CCCO2)cc1OCC (stereo not given),-1,5%,-4,1.4,-5.5,-7,2.2,0.9
COc1ccc2oc(C(=O)OCC(=O)N3CCN(C(C)=O)CC3)c(C)c2c1,-2,-6%,2,0.1,0.3,2,-2.8,1.8
CCOC(=O)C1CCN(C(=O)COc2ccc(C(=O)c3ccccc3)cc2)CC1,-6,nt,nt,-1.0,0.7,nt,-1.5,nt
Cc1ccc(CNC(=O)CC(NC(=O)c2ccccc2)c2ccccc2)cc1 (stereo not given),-1,-12%,nt,2.2,-0.6,nt,-1.0,nt
Cn1nnc(NC(=O)c2cccs2)n1,0,10%,3,-0.7,-4.1,1,-4.1,1.1
O=S(=O)(Nc1cccc(-n2cnnn2)c1)c1ccccc1C(F)(F)F,-4,1%,12,0.4,-6.4,-10,-2.2,3.1
CC1CC(C)CN(C(=O)Cn2nnc(-c3ccc(Br)cc3)n2)C1 (stereo not given),-1,nt,-6,0.0,-0.3,11,0.1,1.1
Cc1noc(C)c1C(=O)OCC(=O)/C=C1\N(C)c2ccccc2C1(C)C,11,4%,-26,-1.4,nt,2,-3.8,?
COc1ccc(N2CCOCC2)c(NC(=O)c2ccco2)c1,-3,nt,-5,-0.2,-0.6,-3,2.4,8.2
Cc1cc(C(=O)COC(=O)c2cccc(NS(C)(=O)=O)c2)c(C)n1CC1CCCO1 (stereo not given),-1,nt,nt,-1.9,2.1,nt,0.3,nt
Cc1cccc(OCC(=O)O/N=C(\N)Cc2ccc(Cl)cc2)c1,-5,8%,-11,-0.4,nt,0,-5.6,-2.6
CC(C)[C@H](Nc1ccc(C(F)(F)F)cc1[N+](=O)[O-])C(=O)O,-10,4%,12,-0.3,-0.7,-3,1.4,1.6
CC(=O)c1ccc(NC(=O)CCc2c(C)nc3ncnn3c2C)cc1,nt,7%,-6,nt,nt,-15,nt,-3.0
CCOc1ccc(NS(=O)(=O)c2ccc3[nH]c(=O)oc3c2)cc1,-3,-2%,-2,0.3,5.2,-4,8.2,?
O=C(Nc1ccnn1C1CCN(C(=O)c2ccc(Cl)c(F)c2)CC1)C1CCOC1 (stereo not given),0,nt,0,0.3,-7.1,-13,0.2,-5.2
COc1ccc2[nH]c3c(=O)n(CCCC(=O)NC4CCCCC4C)c(=S)[nH]c3c2c1 (stereo not given),3,nt,-2,0.4,-1.7,17,4.5,0.4
COc1ccc(-c2ccc(SCC(=O)c3cccs3)nn2)cc1OC,-10,6%,-1,0.3,-1.5,-3,0.5,1.4
Cc1ccc(S(=O)(=O)n2nc(OC(=O)c3ccccc3C)cc2N)cc1,1,nt,9,0.8,-0.6,-8,-3.0,-2.8
COc1ccc(/C=c2\s/c(=C/C(=O)c3ccc(C)cc3)[nH]c2=O)c(OC)c1,0,22%,?,0.3,0.3,11,3.4,-1.2
Cc1cc(C(=O)N/N=C/c2ccc[nH]2)n[nH]1,-4,?,?,-0.2,1.1,-14,-0.3,-1.7
O=C(N/N=C/c1cc(Br)c(Br)o1)c1cccnc1,2,?,26,1.3,nt,-2,4.1,-28
Cc1cccc(/C=C/C(=O)c2ccc(N3CCOCC3)cc2)c1,nt,nt,15,-0.3,2.4,-17,-0.9,-6.4
Cc1ccc(N2CN(Cc3ccco3)CNC2=S)c(C)c1,-6,4%,-6,0.7,2.2,-3,-4.1,-0.9
O=C(NC1CCCC1)C1CCC(CNS(=O)(=O)c2ccc(F)cc2)CC1 (stereo not given),-1,-2%,3,1.1,0.8,-13,-4.4,3.7
COc1ccc(C(=O)N2CCc3ccc(NC(=O)c4ccccn4)cc3C2)cc1F,nt,1%,7,nt,-5.2,4,nt,0.7
Cn1cc(CNC(=O)C2CCC(=O)N(Cc3cccc(C(F)(F)F)c3)C2)cn1 (stereo not given),-7,-12%,7,0.4,-0.6,-20,-5.7,5.1
N#Cc1c(Cc2cccc3ccccc23)nn(CCO)c1N,-5,nt,-13,1.4,-7.2,-10,1.7,-1.3
Cc1c(Cl)cccc1NC(=O)NCc1ccc(F)cc1,0,13%,-3,0.4,-1.9,-14,2.1,-2.7
COC(=O)N/N=C/c1cc(N=Nc2ccccc2Cl)ccc1O,6,0%,-12,-0.3,0.9,4,2.8,-2.3
Clc1c(-c2nnc3n2CCCCC3)sc2ccccc12,-31,23%,2,0.9,nt,-4,0.2,0.3
CC(=C/c1ccccc1)/C=N/n1c(-c2ccncc2)n[nH]c1=S,-28,0%,-6,0.6,-8.8,-15,-1.6,-6.0
C=CCNC(=O)COc1c(C)ccc(C)c1C,-3,nt,9,0.2,-1.5,-7,7.4,-0.3
CC1(C)C=C(c2ccc(C=O)s2)CC(C)(C)N1,-2,-3%,-2,0.1,nt,-13,-3.4,-1.5
Cc1nc2c(sc(=S)n2Cc2ccco2)c(=O)n1CC(=O)Nc1ccccc1,4,nt,22,0.1,-6.1,9,-0.5,2.7
CCCCn1c(N)c(N(CC(C)C)C(=O)Cn2c(=O)oc3ccccc32)c(=O)[nH]c1=O,1,-2%,5,-0.3,-0.2,5,0.9,1.5
Cc1cc(OCC(=O)OCC(=O)NCc2ccco2)ccc1Cl,-6,-8%,2,0.5,-0.5,-8,7.8,-2.7
CCC(C)(C)c1nnc(NC(=O)c2cccc([N+](=O)[O-])c2)s1,0,nt,11,-1.6,-11,-13,1.1,?
Cn1nccc1C(=O)OCC(=O)Nc1cccc(Cl)c1,-1,nt,nt,0.2,-1.6,nt,-5.1,nt
COc1ccc(NC(=O)C2CCC(CNc3c(N4CCOCC4)c(=O)c3=O)CC2)cc1Cl (stereo not given),-1,-7%,3,1.4,-29,-10,2.8,-0.7
COc1ccc([N+](=O)[O-])cc1NC(=O)Cc1c(Cl)cccc1Cl,3,-5%,-15,0.9,nt,-18,-1.1,2.4
CC(C(=O)NC1CCCc2ccccc21)N1C(=O)C2CCCCC2C1=O (stereo not given),0,nt,nt,0.8,-6.7,nt,1.1,nt

# More compounds.
SMILES,Beta cell apopt,Vif TR-FRET,Calb FLC,Bfl-1 A1 inh,AF4-AF9 inh,T cruzi repl,LANA-H2A inh,RanGTP-Impb inh
O=C(c1ccc(Cn2c(=S)[nH]c3ccccc3c2=O)cc1)N1CCN(c2ccccn2)CC1,26,-7%,?,-0.4,6.2,-1,4.3,0.3
CC(C)OCCCNC(=O)Cn1nc(-c2ccccc2)ccc1=O,1,2%,-12,1.2,nt,-3,6.5,1.9
CCc1noc(C)c1C(=O)Oc1ccc(N(C)S(=O)(=O)c2ccc(C)cc2)cc1,0,-3%,nt,-0.4,nt,nt,-4.2,nt
CCCCOC(=O)c1ccc(S(N)(=O)=O)o1,-4,-5%,32,3.2,nt,3,-0.5,3.0
CCC(C)C(NC(=O)C1CCC(C)CC1)C(=O)NCc1ccco1 (stereo not given),2,nt,6,0.4,0.3,2,0.7,5.6
O=C(Oc1ccc(Cl)c2cccnc12)c1ccco1,1,1%,-4,-0.6,nt,-11,3.7,-2.1
CCOc1ccccc1CN1CCNC(=O)C1CC(=O)NC1CCCCCCC1 (stereo not given),-3,nt,-13,-3.1,1.9,25,-4.8,2.3
Cc1ccc(SCc2[nH]nc3c2C2(C(=O)Nc4ccc(F)cc42)C(C#N)=C(N)O3)cc1 (stereo not given),-8,1%,-2,0.2,nt,-8,2.1,-1.1
Cc1cc(C(F)(F)F)nn1CC(=O)Nc1cccnc1,-10,-9%,-4,0.3,nt,-14,-2.6,1.0
Cc1nnc(SCC(=O)Nc2nccs2)n1N,1,2%,-2,0.2,8.8,-13,-3.9,3.9
CCN1C(=O)c2ccccc2Sc2ccc(C(=O)NCCCN(CC(C)C)CC(C)C)cc21,-4,1%,3,0.6,3.1,25,0.2,5.1
COc1cc(SC)ccc1C(=O)N1CCc2ccccc21,nt,nt,6,0.9,0.6,11,2.8,-3.1
O=C(Cc1coc2cc3c(cc12)CCC3)NC1CCCCCCC1,4,30%,-5,-0.1,3.4,6,-0.5,0.1
CCSc1nnc(NC(=O)c2ccccc2)s1,-7,2%,-2,-6.0,-13,-4,9.0,-1.2
Cc1ccc(OS(=O)(=O)c2cn(C)c(=O)n(C)c2=O)cc1C,-1,2%,-2,0.4,-1.8,9,0.0,1.4
CC(NC(=O)CN1CCOCC1)c1ccccc1 (stereo not given),-2,0%,5,0.4,-5.2,-8,7.3,1.0
